# Source: PubChem BioAssay (National Center for Advancing Translational Sciences (NCATS))
# Six1-Eya2 inh – inhibitors of human Six1/Eya2 interaction | activity change, % (no concentration beside the values) | 360,000 compounds, 0.56% hits | AlphaScreen GST-Six1/His-Eya2 binding, biochemical; stronger effect = lower value; control for the full effect not named in the record | Q15475+O00167; in the data active = activity change below about -65%; inconclusive = about -30% to -65%; inactive = above about -30%; further: on the % scale 0 is the no-effect control and ±100 the full control effect
#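 Homogeneous AlphaScreen proximity assay pairing GST-Six1 with His-tagged Eya2 (added as 5X mix: 250 nM and 500 nM) in 50 mM Tris pH 8.0, 300 mM NaCl, 1 mM TCEP. Glutathione donor and nickel acceptor beads; 1 h, 37 °C, dark.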
# TRPML1 agonist – agonists of human TRPML1 channel; 410,000 compounds, 0.12% hits; Q9GZU1; activation, % (test concentration not listed); TRPML1-expressing cells, Ca2+ dye fluorescence, FDSS; host cell line not named in the record; reference of the full effect not given here; in the data active = activation above about 50%; inconclusive = about 30% to 50%; inactive = below about 30%; further: 0% is about no effect; the text of the record puts the active cut at 80%
# Target sequence (Q9GZU1 whole entry, looked up): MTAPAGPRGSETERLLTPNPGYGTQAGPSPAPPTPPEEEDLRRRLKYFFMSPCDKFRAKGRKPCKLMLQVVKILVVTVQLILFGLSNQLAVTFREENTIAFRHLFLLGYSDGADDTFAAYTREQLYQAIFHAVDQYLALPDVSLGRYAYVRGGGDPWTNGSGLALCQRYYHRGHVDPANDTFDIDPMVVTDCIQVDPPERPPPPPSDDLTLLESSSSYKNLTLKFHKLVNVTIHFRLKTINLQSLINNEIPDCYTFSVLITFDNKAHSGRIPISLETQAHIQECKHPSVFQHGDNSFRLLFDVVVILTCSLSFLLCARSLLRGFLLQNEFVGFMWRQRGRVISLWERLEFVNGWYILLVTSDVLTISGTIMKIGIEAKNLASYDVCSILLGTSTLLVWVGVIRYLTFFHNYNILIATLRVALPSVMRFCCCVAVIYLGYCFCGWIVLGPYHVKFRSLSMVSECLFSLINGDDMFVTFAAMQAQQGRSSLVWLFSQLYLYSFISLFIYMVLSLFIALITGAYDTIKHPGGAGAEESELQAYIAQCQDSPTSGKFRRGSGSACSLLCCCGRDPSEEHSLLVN
#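 Calcium fluorescence on an FDSS kinetic reader gave the read-out. Tet-induced TRPML1-DL cells were plated overnight, dye-loaded (Ca8 with quencher, 45-90 min, room temperature, dark), then read 110 s after compound addition, and again 110 s after 4uM final 54-4 (EC80).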
# D2 potentiator – potentiates the human D2 dopamine receptor allosterically; DiscoveRx D2 beta-arrestin cells, luminescence, 90 min; 100% = 57 uM dopamine signal; potentiation, % (test concentration not listed); 360,000 compounds, 0.23% hits; AID 624464; active = potentiation of 50% or more; inconclusive = 30% to 50%; inactive = 30% or less;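 further: compound concentration not given in the record; tested on top of an EC20 dose of dopamine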
# Target sequence (P14416 whole entry, looked up): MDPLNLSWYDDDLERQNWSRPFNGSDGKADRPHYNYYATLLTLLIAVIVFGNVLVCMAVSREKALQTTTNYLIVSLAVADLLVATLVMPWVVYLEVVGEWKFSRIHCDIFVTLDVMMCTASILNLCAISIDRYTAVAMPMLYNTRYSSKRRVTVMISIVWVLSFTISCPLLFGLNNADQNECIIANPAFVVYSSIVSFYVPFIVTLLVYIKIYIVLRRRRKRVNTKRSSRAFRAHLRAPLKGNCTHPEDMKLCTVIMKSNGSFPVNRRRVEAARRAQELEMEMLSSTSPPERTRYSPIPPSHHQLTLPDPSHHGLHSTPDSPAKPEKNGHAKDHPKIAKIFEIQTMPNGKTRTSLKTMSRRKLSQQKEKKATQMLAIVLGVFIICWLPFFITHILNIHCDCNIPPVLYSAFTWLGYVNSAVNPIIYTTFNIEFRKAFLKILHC
#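 PathHunter D2 cells, attached overnight at 37 deg C, received compound in DMSO plus dopamine at EC20 (50 nM final) for 90 min at 37 deg C. Beta-arrestin recruitment was read as luminescence after 1 h with detection reagent at ambient temperature.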
# D2 agonist – activates the human D2 dopamine receptor; DiscoveRx PathHunter D2 beta-arrestin, luminescence, 90 min; 100% = 57 uM dopamine signal; activation, % (no concentration beside the values); 360,000 compounds, 0.084% hits; AID 624465; in the data active = activation above about 40%; inconclusive = about 15% to 40%; inactive = below about 15%; further: compound concentration not given in the record; the text of the record calls up to 30% inactive
#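 DiscoveRx PathHunter D2 beta-arrestin cells (2,100/well) attached overnight, then compound-stimulated 90 min at 37 C in HBSS/10 mM HEPES/0.1% Tween-20 buffer; beta-galactosidase complementation read by luminescence after 1 h at ambient temperature. Dopamine 57 uM final (EC100) as control.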
# PINK1 modulator – modulators of PINK1 expression. PINK1 immunofluorescence, high-content cytometry, 24 h. Potency, µM (top dose mostly 76.6 µM), for the others: top-dose activation (PINK1 increase), hits mostly activators. 410,000 compounds, 0.2% hits; active = well fitted activation curve with a large enough effect; inconclusive = small, poorly fitted or top-dose-only effect; inactive = flat fitted curve, though single readings scatter; cell line not stated here;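 further: potency means the concentration at half of the fitted maximal effect; % of control where 0% means no effect; nearly all actives have a fitted effect of over 65% in size; a mitochondrial uncoupler was the plate control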
#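 Decision-based qHTS: stable cells, 24 h exposure to five compound concentrations, CCCP as control. Fixed cells stained for PINK1 plus nuclear, mitochondrial and cell markers, cytometer read.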
# CtBP-E1A blk – CtBP/E1A binding inhibition | AID 651724 | 340,000 compounds, 0.49% hits | AlphaScreen GST-E1A/His-CtBP binding, 1536-well; stronger effect = lower value; control for the full effect not named in the record | activity change, % (concentration not given with the values); in the data active means activity change below about -65%; inconclusive means about -30% to -65%; inactive means above about -30%; further: on the % scale 0 is the no-effect control and ±100 the full control effect
#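 AlphaScreen with 125 nM GST-E1A and 125 nM His-CtBP (5X stocks) in Tris pH 8.0, 300 mM NaCl, BSA, Tween 20, TCEP. Compounds preincubated 2 h at 37 deg C, then glutathione donor/nickel acceptor beads added for 1 h at 37 deg C in dark.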
# * hit, by the source's call; u = inconclusive; x = no result given; & = joins results of further samples; [ ] = dose if it differs, or a comment.
SMILES,Six1-Eya2 inh,TRPML1 agonist,D2 potentiator,D2 agonist,PINK1 modulator,CtBP-E1A blk
O=C(C1=C(O)C(=O)N(CC2CCCO2)C1c1cccc(Cl)c1)c1ccco1 (configuration not stated),-13,2.7,-3,-3.2,1.7%,-15
Cc1cc(C(=O)NNC(=O)c2ccc(Cl)cc2)no1,6,0.4,-10,1.0,0.3%,-3
COc1ccc(C)cc1N(CC(=O)N1CCCCCC1)S(=O)(=O)c1ccc(C)cc1,2,0.0,-15,0.4,-0.1%,6
Cc1ccccc1NC(=O)CN1C(=O)CSc2ccc(S(=O)(=O)N3CCCCC3)cc21,2,1.2,1,6.4,0.0%,-3
Cc1ccc(C)c(NC(=O)COc2coc(CN3CCc4ccccc4C3)cc2=O)c1,-3,1.2,2,3.9,-0.2%,5
COC(=O)C1=C(C(=O)OC)[C@@H]2N(C)c3ccccc3[C@@]23C[C@@H](CO)N(C(=O)C2CCC2)C3=N1,2,-0.2,-16,-3.4,0.5%,-5
Cc1ccc(C)c(S(=O)(=O)NC(C)C(=O)Nc2ccc(-c3nc4ccccc4s3)cc2)c1 (configuration not stated),2,0.8,3,-0.1,u,6
Cc1ccc(-c2noc(CN3CCC(C(N)=O)CC3)n2)cc1,5,0.4,-7,-2.2,-1.6%,6
O=C(OC(C(=O)Nc1ccc(Cl)cc1C(F)(F)F)c1ccccc1)c1c(Cl)cccc1Cl (configuration not stated),12,2.8,-7,-2.7,1.8%,8
O=C(Nc1cccc(O)c1)c1cc(-c2cccs2)on1,-4,2.5,-8,3.5,1.6%,-1
CC[C@]1(C(=O)OC)[C@H]2C(=O)N(C)C(=O)[C@H]2[C@H]2CN=C(SCc3ccc(Cl)cc3)N21,3,0.6,-7,-2.7,-1.5%,0
COc1ccc2cc(S(=O)(=O)N3CCOCC3)ccc2c1,3,1.2,-3,-3.6,-2.3%,3
CCOC(=O)c1oc2ccccc2c1NC(=O)COC,4,0.6,-10,-1.6,8.1%[38.3 µM],2
O=C(COc1ccccc1)N[C@@H]1c2ccccc2CC[C@@H]1O,-2,-0.7,-5,-0.1,1.9%,4
Cc1ccc(NC(=O)C2CCN(S(=O)(=O)c3cnc[nH]3)CC2)nc1,2,-0.1,-9,-2.1,-0.4%,2
O=C(O)/C=C/c1ccc(S(=O)(=O)Nc2ccc3[nH]c(=O)[nH]c3c2)cc1,-29,-0.2,8,-2.0,2.2%,u
COc1cc(S(=O)(=O)Nc2ccc(C(=O)NCC(=O)O)cc2)ccc1NC(C)=O,1,-0.5,-6,-0.9,-0.2%,14
COc1ccc(NC(=O)CSc2nnc(Cc3ccccc3)o2)c(OC)c1,-2,-0.7,-20,0.8,-2.6%[38.3 µM],10
CC(C)(C)C(=O)N1CCN(c2nc3ccccc3o2)CC1,7,-0.3,2,-0.6,0.8%,6
CC(C)c1nc(SCC(=O)NC2CCCC2)c2c(=O)n(C)c(=O)n(C)c2n1,0,0.4,-9,-4.0,0.2%,-15
CCc1ccc(C(C(=O)NCc2ccc(F)cc2)N(C(=O)c2csnn2)C2CC2)cc1 (configuration not stated),-5,-0.6,-10,-1.7,1.3%,3
COc1ccccc1N1CCN(C(=O)c2sc3nc4n(c(=O)c3c2C)CCC4)CC1,-1,-0.1&-0.8,-2,-0.7,0.9%&-0.4%,-7
Cc1c(C(C)C)c(=O)n(-c2ccc(S(=O)(=O)NC3CCCCC3)cc2)n1C,-1,-0.3,-6,5.9,-0.1%,5
COC(=O)c1ccc2c(c1)SC1=C(CCCC1=O)N2,-19,2.9,8,-0.1,13%,-10
Cc1occc1C(=O)Nc1cnn(CCCC(=O)O)c1,5,7.8,-4,-1.3,-0.5%,1
CC(=O)c1c(O)cc(=O)n(-c2ccccc2)c1-c1cccc2ccccc12,2,0.3,-5,0.0,0.8%,-3
Cc1nc2ccccc2c(=O)n1NC(=O)/C=C/c1ccc(Br)cc1,-14,3.2,-9,-0.6,-1.3%,-65*
Cc1ccccc1NC(=S)N1CCOCC1,8,0.3,-4,-3.3,2.6%,x
COc1ccc(CN2CCc3c([nH]c4ccccc34)C2)c(OC)c1C,-20,1.6,-14,3.2,8.0%,-26
COCCn1c(SCC(=O)NC2CCCCC2)nnc1-c1ccco1,8,-1.3,-4,-4.5,1.9%,17

# 3 of these compounds in another layout:
canonical_smiles	Six1-Eya2 inh	TRPML1 agonist	D2 potentiator	D2 agonist	PINK1 modulator	CtBP-E1A blk
CC(=O)c1c(O)cc(=O)n(-c2ccccc2)c1-c1cccc2ccccc12	2	0.3	-5	0.0	0.8%	-3
COc1ccc(NC(=O)CSc2nnc(Cc3ccccc3)o2)c(OC)c1	-2	-0.7	-20	0.8	-2.6%[38.3 µM]	10
Cc1c(C(C)C)c(=O)n(-c2ccc(S(=O)(=O)NC3CCCCC3)cc2)n1C	-1	-0.3	-6	5.9	-0.1%	5

# Continuation.
SMILES,Six1-Eya2 inh,TRPML1 agonist,D2 potentiator,D2 agonist,PINK1 modulator,CtBP-E1A blk
COc1ccc(NC(=O)c2cc(-c3cc(F)ccc3OC)n[nH]2)c(OC)c1,-3,-0.8,14,-1.1,-0.4%,-15
COc1ccc(CNC(=O)Cn2cncn2)cc1OC,6,-0.6,3,-0.1,-0.5%,1
CC1CN(S(=O)(=O)c2ccc(C(=O)Nc3ccccc3F)cc2)CC(C)O1 (configuration not stated),0,-0.4,-4,0.3,-1.5%,-24
Cc1ccc(NC2CCCN(C(=O)c3cnc4ccccn4c3=O)C2)cc1C (configuration not stated),3,0.1,-6,-6.2,-1.0%,2
Cc1cccc(NC(=S)N2CCN(S(=O)(=O)c3ccc(F)cc3)CC2)c1,-1,1.2,-5,2.8,1.0%,2
COCCN(C(=O)CSc1nc2ccccc2o1)c1c(N)n(Cc2ccccc2)c(=O)[nH]c1=O,2,-0.1,5,-0.3,-0.5%,x
CC(=NC1CCCCC1)C1=C(O)c2ccccc2C1=O,-5,1.4,1,-1.5,4.1%[38.3 µM],-6
CC(=O)N1c2ccc(S(=O)(=O)N3CCCC(C(=O)Nc4ccc(C)cc4C)C3)cc2CC1C (configuration not stated),-5,-1.4,-1,-1.8,1.2%,0
CCOc1ccc2nc(-c3ccccc3)[nH]c2c1,-2,0.2,-7,-2.5,6.4%,2
CC(=O)Nc1ccc(S(=O)(=O)Nc2nc3ccccc3nc2Sc2nncn2C)cc1,-4,2.7,5,-2.7,4.5%[38.3 µM],-5
CCc1nn(CCCC(=O)N(C)Cc2ccccc2)c(=O)c2cc3occc3n12,-1,-0.7,-8,0.2,-0.6%,-3
CC(C)NC(=O)c1cc(C2CCCCN2C(=O)CCCc2ccccc2)on1 (configuration not stated),-3,-1.0,-6,-2.7,0.3%,7
C=C(C)CSc1nc2nc(C)cc(C)n2n1,0,0.2,3,1.0,-0.2%[38.3 µM],4
Cc1ccc(C(=O)N2CCSC2=S)cc1,-12,1.0,-7,-0.2,0.4%,3
O=C(NCC(F)(F)F)c1cc2c(c(-c3cccc(-c4ccccc4F)c3)n1)[C@@H](CCO)N(C(=O)CC1CC1)C2,8,0.8,x,x,-0.3%,21
CC1CC(=O)N(c2ccc(NCCc3ccc(O)cc3)c([N+](=O)[O-])c2)C1=O (configuration not stated),-22,1.9,-15,-3.9,5.2%,0
COc1ccc(Cl)cc1NC(=O)CN(C)C(=O)c1ccc2c(c1)CC(c1ccccc1)OC2=O (configuration not stated),-6,0.7,-21,2.5,10%,-1
Nc1c(Cl)c(Cl)nc(C(=O)N/N=C/c2ccco2)c1Cl,-9,-0.1,-11,-3.6,1.5%,x
Cc1c(Cl)cccc1NS(=O)(=O)c1ccccc1,-5,4.7,-4,-2.9,2.5%,0
CC(C)n1c(=O)c2ccccc2n1Cc1cn(C2CCCC2)nn1,9,-0.2,2,0.1,-0.5%,12
CC1CCN(S(=O)(=O)N2CCC(C(=O)NCc3ccc(F)cc3Cl)CC2)CC1,1,-0.7,-11,-1.1,2.9%,-1
O=[N+]([O-])c1ccc(NS(=O)(=O)c2cccc3cccnc23)cc1,-6,0.5,-5,-4.7,-0.1%,-9
Cc1cc(C)c2cc(C#N)c(NCCCNC(=O)c3cccnc3)nc2c1,-4,1.4,0,0.6,7.2%,0
O=C(COc1ccccc1)NCCc1cn2ccsc2n1,3,0.2,-4,-4.9,0.5%,4
CCCS(=O)(=O)NC(=O)C1(C)CCCN(C(=O)c2ccccc2OC(F)(F)F)C1 (configuration not stated),14,-0.1,1,-5.2,4.0%,8
Cc1cccc(C(=O)NCCc2nnc(SCC(=O)Nc3cccc(C(=O)O)c3)n2C)c1,8,0.1,-19,-3.4,1.3%,-2
COc1ccccc1NC(=O)C1CCCN(S(=O)(=O)c2ccc3[nH]c(=O)ccc3c2)C1 (configuration not stated),-10,-0.1,4,3.3,2.1%,-2
CCOCCCNC(=S)Nc1ccc2nc(N3CCOCC3)cc(C)c2c1,-11,0.8,-13,3.9,-1.3%,-1
O=C(NC1CCN(Cc2ccc(F)cc2)CC1)c1ccccc1,11,-0.5,-15,-5.0,4.0%,0
CCCc1nnc(SCC(=O)N2CCOCC2)n1CCCOC,6,-0.9,1,1.6,-0.5%,-1
Cc1cc2c(cc1C)C(c1ccccc1Br)CC(=O)N2 (configuration not stated),0,2.7,18,-1.2,14%,2
COc1cc(NC(=O)COc2ccc(Br)cc2)ccc1NC(=O)C(C)C,-3,0.9,-6,-0.5,1.9%,3
Cc1cc(S(=O)(=O)N2CCN(c3ccccc3F)CC2)ccc1-n1cnnn1,-3,0.5,-3,5.1,0.3%,-11
CN(/N=C/c1ccc(N(C)C)cc1)C1=NS(=O)(=O)c2ccccc21,u,4.9,-2,-5.3,u,u
Cc1ccc(C(=O)CSc2nnc3c4ccccc4nc(Cc4ccccc4)n23)cc1,-4,0.4,-10,0.4,-0.3%,4
COC(=O)c1sccc1NC(=O)c1ccncc1,-1,1.5,-4,-5.5,0.0%,2
CN(C)S(=O)(=O)c1cccc(NC(=O)CNC2CCCCC2)c1,-3,-0.2,-25,-7.3,0.4%,x
Cc1ccc(NC(=O)Cn2cncc2-c2ccc([N+](=O)[O-])cc2)cc1C,-3,0.9,12,-0.4,4.2%,-2
Fc1cccc(Cc2noc(CN3CCSCC3)n2)c1,2,-0.6,-3,6.2,1.3%,7
O=C(CCn1c(=O)c2ccccc2n(CC(=O)NC2CCCC2)c1=O)NCCc1ccc(Cl)cc1,4,-0.1,-7,-2.7,1.7%,2
COc1ccc(C)cc1NC(=O)CN1CCCN(S(=O)(=O)c2ccc(Br)cc2)CC1,-6,0.0&0.9,-9,-1.0,-0.7%&1.5%,-11
C=CCNC(=O)C1CCN(c2cnccn2)CC1,-1,-0.6,0,-4.2,3.6%,12
Clc1cccc(C[n+]2cc(-c3ccccc3)n3c2CCC3)c1,22,-0.5,-26,-3.5,1.5%,0
CC(=O)Nc1c2c(nn1-c1ccccc1)CSC2,9,0.6,-7,0.6,0.1%,x
C[C@H]1CN([C@@H](C)CO)S(=O)(=O)c2ccc(Br)cc2O[C@H]1CN(C)Cc1ccc(F)cc1,-1,1.7,-2,-1.5,3.0%,5
